Screens from PubChem.
StopGo reporter = FMDV 2A StopGo reporter, luciferase signal; human cells with a luciferase reporter of 2A StopGo recoding; control for the full effect not named in the record; Potency, µM (highest dose often 57.9 µM), inactives show at the highest dose signal change, negative = less light; 1.2% of 410,000 active; AID 1159524; active = well fitted falling curve with a large enough effect; inconclusive = small, poorly fitted or top-dose-only effect; inactive = no such curve, though single readings can be large or run the other way; tested in HEK293T cells; further: on the % scale 0 is the no-effect control and ±100 the full control effect; nearly all actives have a fitted effect of over 45% in size; luciferase light after 4 h
NS1 function inh = blocks influenza NS1 protein function. S. cerevisiae slowed by influenza A NS1, growth recovery by OD600. Potency, µM (top dose mostly 46.1 µM), for inactives: at the highest dose activity, positive = more growth. 0.4% of 270,000 active. AID 2326; active means well fitted rising curve with a large enough effect; inconclusive means small, poorly fitted or top-dose-only effect; inactive means no such curve, though single readings can be large or run the other way; further: nearly all actives have a fitted effect of over 50% in size
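Compounds were scored for reversing the slow growth caused by influenza A NS1 in S. cerevisiae, measured by optical density at 600 nm. Assay medium contained 2% galactose at pH 6.0; NS1-free yeast of the same strain were the positive control.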
MARV entry inh = blocks Marburg virus binding to or entry into cells. Potency, µM (doses to about 37.8 µM), without a hit: top-dose activity change, negative = inhibition, hits mostly inhibitors. Marburg virus pseudotyped entry inhibition, cell reporter; control for the full effect not named in the record; about a third of the inactives were read at about 46 µM. 1.8% of 300,000 active; active = well fitted inhibition curve with a large enough effect; inconclusive = small, poorly fitted or top-dose-only effect, or effect the other way; inactive = flat fitted curve, though single readings scatter; tested in HEK293 cells; about a fifth of its hits are not listed in these tables; further: on the % scale 0 is the no-effect control and ±100 the full control effect; luciferase read-out
Cruzain inh noDet = blocks cruzain activity in detergent-free assay. 2.3% of 200,000 active. Potency, µM, inactives show max response, negative = inhibition, usual class: inhibitors. purified cruzain, Z-FR-AMC fluorescence, no detergent;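 further: plate controls were enzyme without inhibitor for no effect and buffer without enzyme for full effect; nearly all actives have a fitted effect of over 40% in size; top concentration of the series not given in the record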
Target sequence (P25779 123-467 limits assumed): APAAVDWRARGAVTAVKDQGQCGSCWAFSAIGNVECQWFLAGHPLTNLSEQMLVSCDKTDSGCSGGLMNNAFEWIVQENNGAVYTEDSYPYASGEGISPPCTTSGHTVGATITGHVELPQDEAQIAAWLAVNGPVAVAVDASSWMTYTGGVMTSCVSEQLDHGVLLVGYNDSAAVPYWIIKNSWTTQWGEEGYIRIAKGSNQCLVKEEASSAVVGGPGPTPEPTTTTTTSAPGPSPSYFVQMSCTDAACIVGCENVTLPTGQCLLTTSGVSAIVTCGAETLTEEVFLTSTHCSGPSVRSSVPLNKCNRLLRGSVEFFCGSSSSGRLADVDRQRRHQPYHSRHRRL
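Purified cruzain at 1.5 nM, pre-incubated 15 min with compound at room temperature in 100 mM sodium acetate pH 5.5, 5 mM DTT, 0.00005% Triton X-100. Reaction started with 2 uM Z-FR-AMC; AMC fluorescence increase over 60 s gives rate.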
Cruzain Triton = blocks cruzain activity in presence of Triton detergent. P25779. purified cruzain, Z-FR-AMC fluorescence, 0.01% Triton. Potency, µM, without a hit: max response, negative = inhibition, most hits filed as inhibitors. 0.43% of 200,000 active;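 further: plate controls were neutral wells for no effect and buffer without enzyme for full effect; nearly all actives have a fitted effect of over 40% in size; top concentration of the series not given in the record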
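Steps: dispense cruzain (1.5 nM final) in acetate buffer pH 5.5 with DTT and 0.01% Triton X-100; pin-transfer compounds; incubate 15 min RT; add Z-FR-AMC (2 uM final); read fluorescence every 30 s, using the 60 s intensity change.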
SARS PLpro yeast = inhibitors of SARS-CoV papain-like protease in yeast | Potency, µM (doses to about 32.9 µM), for the others: at the highest dose activity, positive = growth rescue | S. cerevisiae expressing SARS-CoV PLpro, growth rescue; control for the full effect not named in the record | 0.19% of 330,000 active; active means well fitted rising curve with a large enough effect; inconclusive means small, poorly fitted or top-dose-only effect; inactive means no such curve, though single readings can be large or run the other way; further: 0% is about no effect; nearly all actives have a fitted effect of over 55% in size; growth read by luminescence after 48 h
RE007 growth inh = less growth of the S. pombe RE007 Vpr strain; AID 651644; Potency, µM (titrated, usually from 92.2 µM), inactives show at the top dose activity change, negative = less growth; 0.21% of 360,000 active; S. pombe RE007 Vpr strain, BacTiter-Glo ATP luminescence, 24 h; control for the full effect not named in the record; active = well fitted falling curve with a large enough effect; inconclusive = small, poorly fitted or top-dose-only effect; inactive = no such curve, though single readings can be large or run the other way;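 further: on the % scale 0 is the no-effect control and ±100 the full control effect; nearly all actives have a fitted effect of over 50% in size; the assay follows cell death caused by Vpr and the record does not say whether a fall means rescue or toxicity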
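Fission yeast RE007 carrying one integrated HIV-1 vpr copy, seeded at OD 0.01 in PMG+AL medium with 23 nL pinned compound. Grown 24 h at 30 degrees; viability read by BacTiter-Glo luminescence after 5 min.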
LASV entry inh = inhibitors of Lassa virus binding or cell entry; Lassa virus pseudotype entry inhibition, cell reporter; control for the full effect not named in the record; Potency, µM (highest dose often 37.9 µM), for inactives: at the top dose activity change, negative = inhibition, most hits filed as inhibitors; 1.2% of 300,000 active; AID 540256; active means well fitted inhibition curve with a large enough effect; inconclusive means small, poorly fitted or top-dose-only effect, or effect the other way; inactive means flat fitted curve, though single readings scatter; tested in HEK293 cells; further: on the % scale 0 is the no-effect control and ±100 the full control effect; nearly all actives have a fitted effect of over 50% in size; luciferase read-out
* = called active by the depositor; ? = inconclusive; · = no result given; & = joins results of further samples; [ ] = dose if it differs, or a comment. Unless noted, the call rests on the fitted dose curve; in most records, active means well fitted curve in the direction sought with a large enough effect; inconclusive means small, poorly fitted or top-dose-only effect, or another doubt; inactive means no such curve, though single readings can be large; an effect the other way counts as inactive or inconclusive. Potency means the concentration at half of the fitted maximal effect.

SMILES | StopGo reporter | NS1 function inh | MARV entry inh | Cruzain inh noDet | Cruzain Triton | SARS PLpro yeast | RE007 growth inh | LASV entry inh
O=C(Nc1ccc(Cl)cc1)OCCn1nnnc1C(c1ccccc1Cl)N1CCOCC1 (centres undefined) | -16% | -26% | ? | ? | -10% | -13% | -9% | -9%
CCC(=O)c1ccc(-c2ccccc2)cc1 | 30%[activator] | -4% | ? | -8% | -4.7% | -4% | -2% | 5%
CCOc1ccc(NC(=O)CCC(=O)N/N=C2\CCCc3ccccc32)cc1 | -7% | 3% | -14% | · | · | -5% | -3% | -27%
Cn1c(C(=O)N[C@@H](Cc2ccccc2)C(=O)NCCC(=O)O)cc2cc(Cl)ccc21 | -7% | 3% | 0%[46.1 µM] | · | · | 1% | -7% | -7%
COc1ccc(N2CCN(C(=O)COC(=O)c3cccc(S(=O)(=O)Nc4ccccc4OC)c3)CC2)cc1 | -21% | · | ? | · | · | 7% | 2% | -29%
O=C(CCCNc1ccccc1)N/N=C/c1cccs1 | 55%[activator] | -3% | ? | · | · | -1% | -22% | -18%
COC(=O)c1ccc(N/C=C/C(=O)c2ccccc2)cc1 | -22% | -11% | ? | · | · | -6% | -5% | ?
COc1ccccc1C(=O)Nc1cc2c(cc1N1CCCC1)n(C)c(=O)c(=O)n2C | -23% | · | · | -6% | 0.6% | · | · | -20%[46.1 µM]
CSc1ccc(S(=O)(=O)NCC(=O)OCC(=O)NCCc2ccccc2)cc1[N+](=O)[O-] | 3% | · | 0% | · | · | -3% | 13% | 3%
CCC(C)(C)NC(=O)C(c1ccc(O)cc1)N(Cc1ccco1)C(=O)CCC(=O)Nc1ccccn1 (centres undefined) | 4% | ? | -1%[46.1 µM] | · | · | 3% | -10% | -29%[46.1 µM]
O=C(NCc1cccnc1)c1cccnc1-c1nc2ccccc2s1 | 5% | 6% | 15% | -5% | 0.7% | 8% | -2% | 5%
CCn1c(NCc2cc(Cl)ccc2O)nc2ccccc21 | -24% | ? | · | · | · | -1% | 9% | ·
C=CCn1c(=S)[nH]c2sc3c(c2c1=O)CCC3 | · | 7% | -28% | -25% | -6.1% | -20% | 9% | 7%
Cc1cc(OCC(=O)N[C@@H](Cc2ccccc2)C(=O)O)c2c3c(c(=O)oc2c1)CCC3 | -19% | ? | · | · | · | 5% | -19% | ·
CN(CCC#N)C(=S)Nc1ccc(F)cc1 | -2% | 3% | 2%&2%[46.1 µM] | · | · | 0% | -4% | 7%

Some values from the entries so far:
For NS1 function inh, CCOc1ccc(NC(=O)CCC(=O)N/N=C2\CCCc3ccccc32)cc1 has the entry 3%
For RE007 growth inh, O=C(NCc1cccnc1)c1cccnc1-c1nc2ccccc2s1 has the entry -2%

(cont.)
SMILES | StopGo reporter | NS1 function inh | MARV entry inh | Cruzain inh noDet | Cruzain Triton | SARS PLpro yeast | RE007 growth inh | LASV entry inh
CCN1CCN(C(=O)CN(C)S(=O)(=O)c2ccc(OC)c(C)c2)CC1 | -22% | 7% | -7% | -1% | 4.7% | -5% | 8% | -10%
CCOC(=O)CN(C(=O)COc1nc(C)cc(C)c1C#N)c1ccc(F)cc1 | 9% | -1% | ? | · | · | 1% | -19% | -19%[46.1 µM]
CCOC(=O)C1CC(=O)c2cc(OC)c(OC)cc2C1 (centres undefined) | -10% | 2% | · | · | · | 1% | -1% | ·
O=C(NCc1ccncc1)c1ccc(Br)o1 | 15% | -18% | -2% | -2% | -0.3% | -5% | 7% | 3%
N#CCc1c(C#N)c(N)nc(N2CCCC(O)C2)c1C#N (centres undefined) | -2% | · | 10% | · | · | -3% | -2% | 5%
CSc1nsc(SCC(=O)Nc2cc(C(=O)O)ccc2C)n1 | -6% | 8% | · | · | · | -11% | 7% | ·
COCCCn1c(=O)cc(C)[nH]c1=S | 2% | -1% | · | · | · | 2% | -22% | ·
CCOc1ccc(N2CC(C(=O)Nc3c(C)n(C)n(-c4ccccc4)c3=O)CC2=O)cc1 (centres undefined) | 10% | · | 5%[46.1 µM] | · | · | -6% | 16% | -4%
COc1ccccc1NC(=O)C(=O)NCC(c1cccnc1)N1CCc2ccccc2C1 (centres undefined) | -25% | · | · | -12% | 0.3% | · | · | 12%[46.1 µM]
COc1ccc(Cl)cc1NC(=O)CN(C)CC(=O)NC(C)c1ccccc1 (centres undefined) | -22% | -37% | · | · | · | -1% | 10% | ·
Cc1cc(NC(=O)CCNS(=O)(=O)c2cccc3nsnc23)ccc1Br | 8% | · | 17%[46.1 µM] | 1% | -4.1% | · | · | 5%[46.1 µM]
O=C(Cc1ccc(Cl)cc1)N1CCOCC1 | 8% | 9% | 2% | · | · | -4% | -11% | ?
Cc1ccc(NC(=O)CNCC2CCCCC2)cc1S(=O)(=O)N(C)C | 24% | -1% | · | · | · | 0% | 4% | ·
Cc1cc(C)n(/N=C/c2ccc(C(C)C)cc2)c(=O)c1C#N | -11% | -35% | ? | 7% | -2.1% | -7% | 15% | ?
CN(C)S(=O)(=O)Nc1ccc(Oc2ccccc2)cc1 | · | -46% | -16% | 3% | -5.5% | -2% | 4% | -6%
CC1Cc2ccccc2N1S(=O)(=O)c1ccc2c(c1)n(C)c(=O)c(=O)n2C (centres undefined) | -24% | 2% | -10% | -28% | 0.4% | 2% | -7% | 5%
COc1ccc(C(CNC(=O)COc2cc(C)cc(C)c2)N2CCCCC2)cc1 (centres undefined) | ? | · | ? | 2% | -0.9% | · | · | 4%[46.1 µM]
CC(=O)c1cc(C#N)c(N2CCN(c3ccccc3)CC2)nc1C | -26% | -4% | · | · | · | -2% | -2% | ·
COc1ccc(C(=O)Nc2cc(Cl)cc(Cl)c2)c(OC)n1 | 8% | 2% | ? | 13µM* | 2.0% | 6% | 3% | ?
C=CCn1c(SC(C)C(=O)NCc2ccc3c(c2)OCO3)nc2scc(-c3ccccc3)c2c1=O (centres undefined) | -11% | -1% | -29% | ? | 0.4% | 2% | 8% | ?
COc1ccccc1C(=O)Nc1ccc(S(=O)(=O)N2CCCC2)cc1 | -21% | 3% | 2% | -4% | 0.1% | 2% | 15% | -3%
O=c1[nH]c(C2CCCN(S(=O)(=O)c3cccc(Cl)c3)C2)nc2c1nnn2Cc1ccc2c(c1)OCCO2 (centres undefined) | ? | 20% | · | · | · | -1% | 1% | ·
CCOc1ncccc1C(=O)OCC(=O)Nc1ccc(C(N)=O)cc1 | -10% | 2% | · | · | · | 1% | -2% | ·
Oc1ccc(Nc2nc(-c3ccc(O)cc3)cs2)cc1 | 46%[activator] | 2.8µM* | -17% | -29% | -5.6% | 7% | 5% | ?
COc1cc(C(=O)OCC(=O)NCc2ccco2)cc(OC)c1OC | -29% | -1% | ? | -8% | 2.6% | 1% | -1% | 2%
N#C/C(=C/c1cn(Cc2ccc(F)cc2)c2ccccc12)C(=O)Nc1cccc(Cl)c1 | ? | · | · | 7.9µM* | -2.9% | · | · | -9%[46.1 µM]
CC1=C(/C=N/Nc2ccc([N+](=O)[O-])cc2[N+](=O)[O-])C(C)(C)CCC1 | ? | 2% | -5% | ? | -7.1% | -11% | -17% | 6%
COc1ccc(N(Cc2cccs2)C(=O)COc2cc(C)c(Cl)c(C)c2)cc1 | ? | · | ? | 4% | -8.4% | · | · | -10%[46.1 µM]
COc1ccc(CCNC(=O)Cn2nnc(-c3ccc(OC)c(OC)c3)n2)cc1OC | -17% | -3% | 0%[46.1 µM] | · | · | 0% | -8% | ?
COC(=O)CSc1cc(SCC(=O)OC)c(C#N)c(SCC(=O)OC)c1 | -25% | -87% | ? | -6% | -2.9% | -11% | -12% | -3%
Cc1occc1-c1nnc(SCC(=O)Nc2nccs2)n1Cc1ccco1 | -13% | -1% | -6%[46.1 µM] | 0% | -2.4% | -4% | 1% | 5%
NC(=O)c1cc2ccccc2o/c1=N\NC(=O)c1ccncc1 | -1% | 19% | -11%[46.1 µM] | · | · | 2% | -9% | 2%[46.1 µM]
COc1cc2c(cc1NC(=O)c1ccc(C)c([N+](=O)[O-])c1)oc1ccccc12 | -15% | -1% | ? | 25µM* | 3.3% | 14% | -9% | -3%
COc1cccc(C(=O)N2CCC(CCC(=O)Nc3cccc(C)c3)CC2)c1 | 9% | -6% | 16% | · | · | 5% | -12% | 0%
O=S(=O)(NCC1CCCO1)c1ccc2oc3ccc(S(=O)(=O)NCC4CCCO4)cc3c2c1 (centres undefined) | · | -7% | -28% | 30% | -0.4% | 2% | 0% | 3%
O=C(Nc1ccc(C(=O)O)cc1)/C(=C\c1ccccc1)NC(=O)c1ccc(Br)cc1 | -30% | 10% | ? | · | · | 2% | -20% | 13%
O=C(CCS(=O)(=O)c1ccccc1)Nc1nc2c(s1)CCCC2 | -6% | -12% | · | -3% | 3.4% | 5% | 19% | ·
NC(=O)C1CCN(C(=O)c2ccccc2NC(=O)c2nsc3ccccc23)CC1 | 0% | · | · | 9% | -0.6% | · | · | -1%[46.1 µM]
CC(C)(C)OC(=O)NCCC(=O)N/N=C/c1cccc2nccnc12 | -1% | 0% | ? | · | · | 0% | -24% | ?
COc1ccc(-c2nc3cnccn3c2NC(C)(C)CC(C)(C)C)cc1O | ? | · | -48% | · | · | -1% | -5% | -19%
COc1cc(C(=O)Nc2ccc(Oc3ncnc4sc(-c5ccccc5)cc34)cc2)cc(OC)c1OC | 0% | 4% | -22% | 10% | 0.5% | 1% | -10% | 4%
N#C/C(=N/Nc1ccccc1[N+](=O)[O-])C(N)=S | 0% | -58% | 12%[46.1 µM] | · | · | -17% | 1% | -14%[46.1 µM]
COc1cc(/C=C2\SC(=S)N(CCCCC(=O)O)C2=O)ccc1OS(=O)(=O)c1ccc(C)cc1 | ? | · | ? | · | · | -2% | -8% | -19%
COc1ccc(OCC(=O)Nc2ccccc2C(=O)OCc2cc(=O)n3nc(C)sc3n2)cc1 | 20µM* | · | · | 1% | 0.0% | · | · | 18%[46.1 µM]
COc1ccc(C(C)(C)C)cc1NC(=O)C1C2C=CC(C2)C1C(=O)O (centres undefined) | 8% | -3% | -1% | 3% | 4.6% | -4% | -1% | ?
